# Screening data from PubChem.
# Rce1 inh – blocks yeast Ras-converting enzyme; yeast membranes, quenched prenylated peptide cleavage fluorescence; 0.27% of 290,000 active; AID 2563; calls only;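 active = fall in fluorescence gain of 50% or more versus controls, with final raw signal at or below 3038400; inconclusive = same 50% fall but final raw signal above 3038400; inactive = fall in fluorescence gain under 50%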;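 also: plate controls were neutral control wells for no effect and wells lacking membranes for full effect; tested at 10 µM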
# Target sequence (Q03530 whole entry, looked up): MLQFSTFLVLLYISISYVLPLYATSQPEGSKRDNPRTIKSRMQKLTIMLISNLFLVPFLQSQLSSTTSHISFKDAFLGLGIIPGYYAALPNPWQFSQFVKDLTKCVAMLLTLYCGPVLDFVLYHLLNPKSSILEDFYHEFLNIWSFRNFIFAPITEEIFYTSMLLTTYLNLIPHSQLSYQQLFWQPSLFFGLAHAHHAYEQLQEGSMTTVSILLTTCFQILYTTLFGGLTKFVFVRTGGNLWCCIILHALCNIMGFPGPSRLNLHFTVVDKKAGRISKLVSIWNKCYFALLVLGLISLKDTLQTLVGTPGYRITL
# PABP FP inh – blocks human PABP binding to poly(A) RNA; P11940; fluorescence polarization; inhibition, % at 35 µM; 1% of 290,000 active;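 active = 50% or more with normal probe brightness, or confirmed in later tests; inconclusive = above 50% with abnormal brightness, or retests that disagree; inactive = below 50% or failed in later tests; about a fifth of its hits are not listed in these tables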;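 also: calls also rest on retests at 20 µM and on dose response follow-up; controls were probe without protein and protein plus probe with vehicle; some compounds called inactive have numbers as strong as hits; many hits fall short of the cut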
# eIF4H inh – inhibitors of RNA binding by human eIF4H; Q15056; eIF4H fluorescence polarization binding assay; inhibition, % at 35 µM; 0.94% of 290,000 active; AID 2012;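 active = 50% or more with normal probe brightness, or confirmed in later tests; inconclusive = above 50% with abnormal brightness, or retests that disagree; inactive = below 50% or failed in later tests; about a fifth of its hits are not listed in these tables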;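 also: calls also rest on retests at 20 µM and on dose response follow-up; 0% = protein and probe with vehicle and 100% = probe without protein; strong numbers were not always called active; many hits fall short of the cut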
# MT1-MMP act inh – MT1-MMP (human) activation inhibition; P50281; HT1080 RFP-PRO-GFP cells, GFP/RFP ratio fluorescence, overnight; percent of plate control window, DMSO zero; GFP/RFP ratio change, % at 20 µM; 0.061% of 360,000 active;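 active = GFP/RFP ratio change of at least 30% with cell ATP level not reduced by more than half and red fluorescence within 50% of control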; also: strong numbers were not always called active
#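 Assay system: HT1080 RFP-PRO-GFP cells. Benchmarks: DMSO vehicle wells and RFP-L50D-GFP reporter cell wells. Times: overnight cell settling, then overnight compound exposure, 37 °C, 5% CO2. Compound: 20 µM single dose, 1% DMSO. Read-out basis: GFP/RFP fluorescence ratio.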
# Yeast UUG start – yeast start codon fidelity modulation; S. cerevisiae UUG-firefly luciferase reporter, luminescence/redox ratio; activity score, % at 18.7 µM; 0.13% of 350,000 active;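 active = replicate mean at a twofold rise or more, about +100% in these data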;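 also: firefly luciferase made from a UUG start codon reports start codon fidelity; reporter light over untreated wells divided by growth signal over untreated wells; some hits fall short of that in this replicate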
# CSC inhib – cancer stem cell inhibition; 1.1% of 300,000 active; inhibition, % at 7.5 µM; AID 2717; cancer stem cell-like cells viability, luminescence;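 active = mean at 75% or more and at least half the replicates too; inconclusive = mean and replicates disagree; tested in HMLE shEcad cells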;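 also: 0% = median of negative and 100% = median of positive control wells; the first replicate is given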
# HIV Env fusion – HIV envelope-mediated fusion inhibition | HeLa-JRFL Env/CEM21 cell fusion, luciferase | inhibition, % at 12.3 µM | 1.1% of 360,000 active | AID 651610;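 active = mean replicate inhibition score of at least 50 and every replicate individually at or above 50; inconclusive = only one of the two criteria met; inactive = mean below 50 and not all replicates reaching 50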;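 also: 0% = plate neutral controls and 100% = maraviroc near 300 nM; one replicate is shown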
# eIF4H inh retest – also measured in eIF4H inh; calls as there; inhibition, %; compound at 20 µM; confirmation average;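 mean of two retest wells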
# PABP FP inh retest – further read-out of PABP FP inh, marked with its call; inhibition, %; compound at 20 µM; confirmation repeats;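 mean of two retest wells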
# MT1-MMP act inh RFP – further read-out of MT1-MMP act inh, marked with its call; RFP signal change, %; measured here: RFP expression control read;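 0 = vehicle wells; hits needed this value within 50% of zero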
# * = called active by the depositor; i = inactive; ? = inconclusive; . = not tested or not shown; + = active, no number; & = joins results of further samples; [ ] = another dose, or the depositor's remark. An excerpt (hit frequency here may not be typical).
SMILES,Rce1 inh,PABP FP inh,eIF4H inh,MT1-MMP act inh,MT1-MMP act inh RFP,Yeast UUG start,CSC inhib,HIV Env fusion,others
C=CCNC(=S)N1CCOCC1,i,-6,3,4,-3,.,15,13,
Cc1cccc(N2CCN(S(=O)(=O)c3cccs3)CC2)c1C,i,2,10,4,2,3,.,14,
COc1ccc(-c2nc(CN3CCN(c4ncnc5ccccc45)CC3)c(C)o2)c(OC)c1,.,2,3,-2,-24,.,-10,43,
C=CCN=C1SCC(=O)N1S(=O)(=O)c1ccccc1,i,11,7,-54,12,-15,-5,-28,
CC(C)(C)Nc1nc(Cl)nc(NCCN2CCOCC2)n1,i,-8,2,2,4,.,-10,0,
Cc1nnc(SCc2nc3sc4c(c3c(=O)[nH]2)CCCC4)n(N)c1=O,i,14,24,.,.,.,.,11,
COc1ccc(NC(=O)COC(=O)c2ccc(-n3cnnn3)cc2)cc1Cl,i,.,.,16,6,-18,-7,-14,
C[N+]1(CCNC(=O)/C=N/O)CCCCC1,i,63*,3,0,2,-8,-9,.,
COC(=O)CC(NC(=O)c1ccco1)c1ccc(C(C)C)cc1 (configuration not stated),i,-12,-10,-5,-11,6,-24,.,
COCCNC(=O)c1cc(-c2ccccn2)nc2ccc(S(=O)(=O)N3CCC(C)CC3)cc12,i,41,1,-3,1,-28,-7,12,
COc1cccc(N2CCN(CC(=O)c3c(C)[nH]c4ccccc34)CC2)c1,i,-5,-5,1,0,-7,-5,.,
O=[N+]([O-])c1cc(S(=O)(=O)N2CCCC2)ccc1NN=C1CCCCC1,+,4,-4,3,-5,.,-20,-4,
CCOc1ccccc1C(C(=O)NC1CCCCC1)N(C(=O)c1csnn1)C1CC1 (configuration not stated),.,12,-5,-5,0,-10,0,2,
COc1cc(-c2cc(-c3ccccc3)nc(SCC(=O)Nc3nccs3)c2C#N)cc(OC)c1OC,i,29,0,-6,-3,-9,-2,.,
O=S(=O)(NCCc1ccccc1)c1cccs1,i,-4,-3,3,0,-11,-17,1,
COc1cccc(Nc2nn3c(=O)c4ccccc4nc3s2)c1,.,.,.,7,1,-22,9,.,
CCCCNC(=O)C(=O)c1ccccc1NC(C)=O,i,-11,-1,1,2,-22,-10,.,
COc1cc(C2C(C(=O)c3ccc(C)o3)=C(O)C(=O)N2CCN2CCOCC2)ccc1OCCC(C)C (configuration not stated),i,-2,9,-2,2,-16,.,0,
COc1ccc(-c2cc(C(F)(F)F)nc(SCC(=O)NCc3cnn(C)c3C)n2)cc1OC,+,-2,-1,-1,4,-2,-4,-5,
CCCCN(Cc1nc2ccccc2c(=O)[nH]1)C(=O)COc1ccc(F)cc1Cl,.,.,.,0,-1,-17,-4,-33,

# Continued; it opens with the 2 that closed the last part.
SMILES,Rce1 inh,PABP FP inh,eIF4H inh,MT1-MMP act inh,MT1-MMP act inh RFP,Yeast UUG start,CSC inhib,HIV Env fusion,others
COc1ccc(-c2cc(C(F)(F)F)nc(SCC(=O)NCc3cnn(C)c3C)n2)cc1OC,+,-2,-1,-1,4,-2,-4,-5,
CCCCN(Cc1nc2ccccc2c(=O)[nH]1)C(=O)COc1ccc(F)cc1Cl,.,.,.,0,-1,-17,-4,-33,
O=C(NCC1CCCCC1)c1ccc(Br)o1,i,-9,-13,1,2,-19,-5,22,
CCCOP(=O)(OCCC)C1(Nc2ccc(C)cc2)CCCCC1,i,-9,-12,-3,-1,.,-2,.,
Cc1ccc(CN2CCSc3ccc(C(=O)NC4CCN(Cc5ccccc5)CC4)cc32)cc1,i,-1,-6,-2,-8,-4,24,14,
COC(=O)c1c(NC(=O)C2C3CCC(C3)C2C(=O)O)sc2c1CCCCC2 (configuration not stated),i,4,4,-6,-2,10,2,3,
CCCCCCCC1CC(CSC(=N)N)OC1=O (configuration not stated),i,2,-14,3,4,-30,-11,.,
COC(=O)c1ccc(NC(=S)N2CCN(Cc3ccc(Cl)cc3)CC2)cc1,i,-1,-8,0,-2,-21,-1,11,
COc1ccc(N2CC(C(=O)Nc3ccc4c(c3)OCO4)CC2=O)cc1 (configuration not stated),i,-9,7,8,5,-12,5,-88,
COc1cccc(C(=O)Nc2nc3ccccc3s2)c1,i,-8,23,0,-3,-47,3,-153,
C[C@@H]1CN([C@H](C)CO)C(=O)c2cc(/C=C/c3ccccc3)cnc2O[C@H]1CN(C)C(=O)NC1CCCCC1,.,.,.,-4,-4,-6&9&-4,.,-8,
OC(COc1ccccc1)CSc1ncn[nH]1 (configuration not stated),i,-3,-5,1,5,-21,1,-121,
C[C@H]1CN([C@@H](C)CO)C(=O)CCCn2nncc2CO[C@H]1CN(C)C(=O)Nc1cccc2ccccc12,.,.,.,2,6,1&-19,.,36,
CN1/C(=C/c2cccc[n+]2C)Sc2ccccc21,i,66*,-2,-50,-27,11,16,9,eIF4H inh retest=4;PABP FP inh retest=84*
Cc1nc2ccccc2nc1OCC(=O)Nc1ccc2ccccc2c1,i,4,-2,-3,-1,-4,8,18,
Cc1cc(C)nc(Sc2c(F)c(F)c(C(F)(F)F)c(F)c2F)n1,i,-9,-2,1,6,-12,-12,.,
O=C(COC(=O)c1ccccc1NC(=O)c1ccco1)Nc1ccc2c(c1)OC(F)(F)O2,i,4,-1,3,-15,-9,18,-18,
C=C(C)Cn1c(N2CCC(Cc3ccccc3)CC2)nc2c1c(=O)[nH]c(=O)n2C,i,2,-6,-2,-6,-9,3,-35,
CCOc1ccc(-n2c(-c3ccc(Cl)cc3)c[n+]3c2SCC3)cc1,i,3,-3,-2,-26,.,-16,-3,
COc1ccccc1CNC(=O)CC1C(=O)NCCN1C1Cc2ccccc2C1 (configuration not stated),i,.,.,-5,2,13,-9,8,
C/C(Cc1ccccc1)=N\NC(=O)CNC(=O)c1ccc(Br)cc1,i,-8,-1,-4,0,.,-9,-13,
CC1CCN(S(=O)(=O)c2ccc(NC(=O)C3CC(=O)N(c4ccccc4)C3)cc2)CC1 (configuration not stated),i,-11,-16,5,-10,4,6,-2,
COC(=O)c1ccccc1OCCCCN1CC(C)OC(C)C1 (configuration not stated),i,-2,2,3,4,-12,-2,0,
COCCn1nnnc1C(c1cccs1)N1CCN(c2cccc(C(F)(F)F)c2)CC1 (configuration not stated),i,-13,-4,1,4,-10,-4,.,
Cc1nn(C)c(C(=O)Nc2c(C)nn(Cc3c(F)c(F)c(F)c(F)c3F)c2C)c1Br,i,3,0,-3,-7,-2,-5,-87,
O=C(OCCN1CCOCC1)C1(c2ccccc2)CCCCC1,i,.,.,.,.,.,-5,-16,
CCc1nc(SCC(=O)NC2CCCC2)c2oc3ccccc3c2n1,i,3,8,5,-11,-13,-13,-1,
C[C@@H]1CN([C@@H](C)CO)C(=O)c2cc(Br)cnc2O[C@H]1CN(C)Cc1cccc(C(=O)O)c1,.,.,.,1,2,-16&-13,.,-19,
CNC(=S)NNC(=O)c1oc2nc(-c3ccccc3)cc(C)c2c1N,i,-6,-7,-1,-23,.,-9,-14,
O=C(O)c1cccc(COc2ccc(CO)cc2Cl)c1,i,2,-4,1,4,.,48,.,
N#CC(c1nc2ccccc2nc1N1CCCC1)S(=O)(=O)c1cccs1 (configuration not stated),i,58,28,-40,16,.,7,-14,eIF4H inh retest=19;PABP FP inh retest=29
Cc1ccccc1C(NC(N)=O)c1ccccc1 (configuration not stated),i,2,-6,4,2,-2,-1,.,
COc1ccc(CNc2oc(COc3ccccc3Cl)nc2C#N)cc1,i,37,31,0,-2,-12,-4,-103,
COc1ccc(CC(=O)Nc2cc(S(=O)(=O)N3CCOCC3)ccc2N2CCCC2)c(OC)c1,.,.,.,-6,-1,-2,.,-9,
CCCOc1cc(N)ccc1C(=O)OCCN(CC)CC,.,.,.,1,-1,-5,-4,-5,
O=C1CSC(c2ccc([N+](=O)[O-])cc2)N1C1CCCCC1 (configuration not stated),i,7,-7,-5,-1,.,-5,23,
CCN(CCCNS(=O)(=O)c1ccc2c(c1)oc(=O)n2C)c1cccc(C)c1,.,-7,-6,-3,-1,-11,-12,21,
CCOc1cccc2sc(N(CCCN(C)C)C(=O)c3ccc(C(=O)c4ccccc4)cc3)nc12,i,-16,-4,1,-1,12,3,-40,
COCCCn1c(=O)c2ccccc2n2c(=S)[nH]nc12,i,9,0,1,4,-5,-11,2,
Oc1ccc(C=NC2CCCCC2)cc1,i,6,9,-3,2,6,-16,13,
O=C(NCC[C@H]1CC[C@H](NS(=O)(=O)c2ccccc2F)[C@@H](CO)O1)c1ccc(F)cc1,.,.,.,2,4,17,.,-11[16.7 µM],
O=C(Nc1nc(-c2ccc(Cl)s2)cs1)c1ccco1,i,-1,0,2,0,.,-9,-44,
Cc1ccsc1/C=C1\CCC(C2CCCC2)C1=O (configuration not stated),i,7,11,4,-2,.,18,-124,
CCC(=O)OCc1c(C(F)(F)F)nn(C)c1Sc1ccc(Cl)cc1,i,9,-6,-1,-1,-1,-9,-3,
Cc1cc(-c2nnc(SCC(=O)c3ccc(Cl)cc3)o2)no1,i,-10,5,3,3,-17,-1,-5,
CCCCn1nnc(NC(=O)c2ccc(-c3cccc(Cl)c3)o2)n1,i,6,2,1,7,17,4,.,
Cc1cc(=O)oc2c(CN3CCC(C)CC3)c(O)c(Cl)cc12,?,?,?,-9,8,-11,-11,-28,
O=C1c2cccc3c(N4CCCCC4)ccc(c23)C(=O)N1c1ccc(O)cc1,i,5,?,-47,34,.,0,-5,
CCOC(=O)CSc1nc(N)c(C#N)c(CC(C)C)c1C#N,i,-2,6,-2,0,5,4,19,
CN1C(=O)/C(=C/c2ccccc2OCc2cccc(F)c2)N(C)C1=S,i,2,1,-5,-5,-13,6,?,
O=C(O)c1ccc(Cl)c(S(=O)(=O)Nc2ccccc2C(=O)Nc2ccc(Cl)cc2)c1,.,29,1,-1,4,-8,7,-11,
O=C(NC1CCCCC1)C(c1ccc(F)cc1)N(Cc1cccs1)C(=O)CN1C(=O)c2ccccc2S1(=O)=O (configuration not stated),i,-1,-8,-3,1,-7,-23,.,
O=C(O)/C=C/C(=O)N(CC1CCCO1)C1CC(=O)N(c2c(Cl)cccc2Cl)C1=O (configuration not stated),i,18,75,-2,1,-1,-2,-5,eIF4H inh retest=16;PABP FP inh retest=39
CCOc1ccccc1NC(=O)C(NCCc1ccc(OC)cc1)c1ccccc1 (configuration not stated),i,4,0,-10,-2,-8,-18,-10,
C/C(=N\NC(=O)c1ccccc1[N+](=O)[O-])c1c(O)cc(C)oc1=O,i,8,4,1,7,-16,-2,.,
CCOC(=O)CSc1nnc(C)n1N,i,-6,-11,2,3,-14,-3,.,
C/C(=N/OCO/N=C(\C)c1ccccc1F)c1ccccc1F,i,-8,-3,-5,-6,-22,-7,.,
O=C(Nc1ncccc1Cl)C(Sc1ccccc1)c1ccccc1 (configuration not stated),i,10,6,-6,-6,2,2,9,
O=S(=O)(c1ccc2c(c1)OCCCO2)N1CCNCC1,i,9,-11,0,4,-3,-12,21,
O=C1NC(c2ccccc2Cl)Nc2ccccc21 (configuration not stated),i,2,-12,3,-1,-11,1,-246,
Cc1cccc(NC(=O)C2CC(=O)N(c3ccc4c(c3)OCCO4)C2)n1 (configuration not stated),.,.,.,2,-2,-4,-3,.,
Cc1nc2c(C(F)(F)F)cccc2c2c1CCS2,i,-9,-6,0,1,.,-5,1,
